# High-throughput results as filed in PubChem BioAssay.
# TRPML1 ag: qHTS for Agonists of the Human Mucolipin Transient Receptor Potential 1 (TRPML1). Mucolipin-1 (Homo sapiens), Q9GZU1. TRPML1-expressing cells, Ca2+ dye fluorescence, FDSS; host cell line not named in the record; reference of the full effect not given here. activation, % (no concentration beside the values). 410,000 compounds, 0.12% hits. AID 624414, 2012; in the data active = activation above about 50%; inconclusive = about 30% to 50%; inactive = below about 30%; also: 0% is about no effect; the text of the record puts the active cut at 80%
# Target sequence (Q9GZU1 whole entry, looked up): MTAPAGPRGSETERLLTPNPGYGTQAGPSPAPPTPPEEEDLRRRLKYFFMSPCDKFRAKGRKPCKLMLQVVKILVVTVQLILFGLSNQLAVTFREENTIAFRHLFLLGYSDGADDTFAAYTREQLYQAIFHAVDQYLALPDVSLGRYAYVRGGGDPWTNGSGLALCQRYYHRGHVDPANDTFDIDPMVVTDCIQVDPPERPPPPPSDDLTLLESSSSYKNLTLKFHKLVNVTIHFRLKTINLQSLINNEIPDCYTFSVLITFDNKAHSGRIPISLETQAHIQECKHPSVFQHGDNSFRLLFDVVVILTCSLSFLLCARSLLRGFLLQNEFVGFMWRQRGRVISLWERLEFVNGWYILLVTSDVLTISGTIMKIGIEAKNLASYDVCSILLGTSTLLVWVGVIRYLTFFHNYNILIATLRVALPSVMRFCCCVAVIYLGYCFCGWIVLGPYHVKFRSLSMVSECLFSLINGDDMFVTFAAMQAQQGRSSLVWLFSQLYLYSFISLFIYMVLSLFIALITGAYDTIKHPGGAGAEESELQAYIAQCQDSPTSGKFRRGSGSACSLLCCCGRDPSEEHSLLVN
#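 Calcium fluorescence on an FDSS kinetic reader gave the read-out. Tet-induced TRPML1-DL cells were plated overnight, dye-loaded (Ca8 with quencher, 45-90 min, room temperature, dark), then read 110 s after compound addition, and again 110 s after 4uM final 54-4 (EC80).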
# Menin-MLL FL inh: qHTS Assay for Inhibitors Targeting the Menin-MLL Interaction in MLL Related Leukemias: Competition With Fluorescein Labeled MLL-derived Peptide; Fluorescence polarization, fluorescein-MLL peptide displacement from menin; FP activity change, % at 61.4 µM; 290,000 tested, under 10 active; inconclusive = falling polarisation curve, or a change in total fluorescence; inactive = total fluorescence flat and polarisation flat or rising; no compound was filed as active; the % refers to the polarisation; negative = inhibition;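 also: % of control where 0% means no effect; inhibitors lower the polarisation; unlabelled MLL peptide was the positive control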
# ClpP mod: qHTS Assay for Activators of ClpP | 340,000 compounds, 1.9% hits | ATP-dependent Clp protease proteolytic subunit (Bacillus subtilis (strain 168)), P80244 | purified B. subtilis ClpP, FRET peptide cleavage, 20 min | Potency, µM (top dose mostly 57.5 µM), without a hit: at the highest dose activity change, negative = active; active = well fitted falling curve with a large enough effect; inconclusive = small, poorly fitted or top-dose-only effect; inactive = no such curve, though single readings can be large or run the other way; also: potency is read from the fitted curve at half-maximal effect; the source files actives as falling curves though it sought activators and does not explain the sign; nearly all actives have a fitted effect of over 65% in size; many hits overshoot -100%
# Target sequence (P80244 whole entry, looked up): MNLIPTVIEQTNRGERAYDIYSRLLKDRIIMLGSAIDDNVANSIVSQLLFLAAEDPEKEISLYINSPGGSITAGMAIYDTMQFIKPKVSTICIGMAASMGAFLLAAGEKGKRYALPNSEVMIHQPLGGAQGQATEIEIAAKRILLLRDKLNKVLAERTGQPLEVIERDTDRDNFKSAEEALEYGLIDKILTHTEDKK
#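 Buffer: 100 mM Tris/HCl pH8, 100 mM KCl, 0.05% low protease BSA, 2.5% glycerol, 0.01% Tween-20. ClpP 10 microg/mL final; 20 min RT; delta FRET normalized to ADEP and DMSO controls.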
# gsp antag: qHTS for Antagonists of gsp, the Etiologic Mutation Responsible for Fibrous Dysplasia/McCune-Albright Syndrome: qHTS; Potency, µM (top dose mostly 76.9 µM), inactives show at the top dose activity change, negative = inhibition, actives largely listed as inhibitors; gsp-mutant cells, cAMP HTRF, 30 min; control for the full effect not named in the record; AID 624288, 2012; 340,000 compounds, 0.4% hits; active = falling curve of any shape with a large fitted effect; inconclusive = falling curve, mostly with a smaller effect; inactive = flat or rising curve; cell line not stated here;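 also: intracellular cAMP measured with PDE inhibitor Ro 20-1724 present during compound exposure; potency is read from the fitted curve at half-maximal effect; % is scaled to controls: 0 for no effect and ±100 for the full control effect; nearly all actives have a fitted effect of over 65% in size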
#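 Measurement of cellular cAMP by homogeneous time-resolved fluorescence following a 30 min compound exposure at 37C. The PDE inhibitor […] was present throughout; the assay buffer was DPBS with 0.05% BSA and 0.005% Tween 20.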
# gsp ag: qHTS for Agonist of gsp, the Etiologic Mutation Responsible for Fibrous Dysplasia/McCune-Albright Syndrome: qHTS. gsp mutant cells, cAMP HTRF, 30 min; control for the full effect not named in the record. Potency, µM (highest dose often 76.9 µM), without a hit: at the highest dose activation (cAMP increase), actives largely listed as activators. 340,000 compounds, 0.13% hits; active = well fitted activation curve with a large enough effect; inconclusive = small, poorly fitted or top-dose-only effect, or another doubt; inactive = no such curve, though single readings can be large or run the other way; cell line not stated here;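 also: phosphodiesterase inhibitor Ro 20-1724 added with compounds to block cAMP breakdown; potency is read from the fitted curve at half-maximal effect; nearly all actives have a fitted effect of over 60% in size; about a fifth of the inactives were tested at one dose only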
#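 Cells stably selected in G418 were plated at 2000/well, grown 16-24 hr, then given compounds in DMSO with the PDE inhibitor […] (300 uM solution added) for 30 min at 37C; cAMP was read by HTRF.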
# TRPML1 blocker: qHTS for Inhibitors of the Human Mucolipin Transient Receptor Potential 1 (TRPML1). Mucolipin-1 (Homo sapiens), Q9GZU1. TRPML1-inducible cells, Ca2+ dye fluorescence, FDSS; active compounds read low; inhibition of EC80 agonist-evoked calcium signal. activity change, negative = inhibition, % (concentration not given with the values). 390,000 compounds, 0.02% hits; in the data active means activity change below about -50%; inconclusive means about -30% to -50%; inactive means above about -30%;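 also: stimulus is agonist 54-4 at its EC80 concentration; % is scaled to controls: 0 for no effect and ±100 for the full control effect; the text of the record puts the active cut at -80%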
#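 Tet-induced TRPML1-DL cells loaded with Ca8 no-wash calcium dye were read kinetically on FDSS. Compound addition was followed by EC80 agonist 54-4 (4 uM final); inhibition was read over 110 s.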
# Starred values were filed as active, the others as inactive; u = inconclusive; x = not tested or not shown; & = joins results of further samples; [ ] = dose if it differs, or a comment.
# Each structure is followed by: ClpP mod, gsp antag, Menin-MLL FL inh, TRPML1 blocker, gsp ag, TRPML1 ag
Cc1ccc(NC(=O)C(C)Sc2nnc3n2CCCCC3)cc1S(=O)(=O)N1CCOCC1 (centres undefined)
 : 0.2%, x, x, 0, -56%[inhibitor], -0.8
CCN(CC)S(=O)(=O)c1ccc(N=NC2=C(O)CCCC2=O)cc1
 : 0.9%, 10%, -0.9, 5, -13%, -0.7
CCN(C#N)c1nc(NC(C)C)nc(NC(C)C)n1
 : -2.7%, 9%, 0.8, -14, u, 1.5
CC(NC(=O)C1CCCC1)c1ccccc1 (centres undefined)
 : x, 8%, x, -3, 20%, 1.0
CC(=O)N1CCc2c(sc3c2c(=O)n(Cc2ccccc2)c(=O)n3Cc2ccc(C)cc2)C1
 : -0.2%, x, x, -9, x, -0.9
COc1ccc(C)cc1NC(=O)N1CCC(CN2CCOCC2)CC1
 : -1.4%, x, x, -12, x, 1.5
CC(C)(C)OC(=O)NC(Cc1ccccc1)C(=O)N1CCCC1C(=O)O (centres undefined)
 : -0.7%, -3%, -27, 1, -12%, 0.0
CCNC(=O)CCc1nc(-c2ccc(C)cc2)no1
 : -0.8%, 8%, 0.7, -15, -17%[15.4 µM], -0.2
COc1cccc2[nH]c3c(=O)n(CCCN4CCOCC4)cnc3c12
 : 2.7%, 6%, -1.7, 1, -25%, -0.7
CCOc1ccc(-c2nnc(-c3cccs3)o2)cc1OCC
 : 116%, -21%, -2.3, 8, -1%, 1.3
O=C(NCC1CC1)[C@@H]1C[C@H]1[C@@H](NP(=O)(c1ccccc1)c1ccccc1)c1ccccc1
 : -3.4%, -6%, 1.6&-0.7, 1, -4%, 1.2
CCc1nnc(NC(=O)CSc2nc3[nH]ncc3c(=O)[nH]2)s1
 : x, 5%, -0.9, 10, 9%[15.4 µM], -0.4
CC1C(=O)C(C)C(c2cc(Cl)ccc2O)NC1c1cc(Cl)ccc1O (centres undefined)
 : x, u, 6.7, -14, -5%, 1.4
CN(C)/C=C(\C=O)c1cccc(Cl)c1
 : x, 9%, -3.3, -3, 8%[15.4 µM], 1.2
C=CCOc1ccc(C2=NOC(C(=O)Nc3ccc4c(c3)OCCO4)C2)cc1 (centres undefined)
 : -1.7%, -6%, -4.6, x, -17%, x
Cc1c(NC(=O)/C(C#N)=C/c2c(Oc3ccccc3)nc3ccccn3c2=O)c(=O)n(-c2ccccc2)n1C
 : 0.3%, 6%, -0.8, 7, 2%, -0.5
Cc1nnc(SCC(=O)NNC(=O)COc2ccc(Cl)cc2)n1C
 : x, 0%, 9.6, -16, -2%, 0.3
Cc1ccc2c(c1)C(c1ccncc1)=NNC(c1ccccc1)=N2
 : x, 5%, 1.5, -4, -1%[15.4 µM], -0.7
Cc1ccc(-c2nnc(SCC(=O)NNC(=O)COc3cccc(C)c3)n2C)cc1
 : -1.9%, 11%, -3.5, -10, -38%[inhibitor], 0.4
NC(=O)c1sc2nc3c(c(-c4ccccc4)c2c1N)CCC3
 : -0.5%, 24%, 0.8, 6, u, 0.9
CCCCSc1nnc(-c2ccc(NC(=O)CC)cc2)n1C
 : -1.3%&0.2%, -4%, 0.2, -5, 1%, 0.3&-0.5
Cc1nc2sccn2c(=O)c1S(=O)(=O)N1CCN(c2ccc(F)cc2)CC1
 : -2.0%&-0.4%, -2%, -4.7, -7&-1, 10%, 0.1&-0.5
CC(C)C1NC(=S)N(Cc2ccccc2)C1=O (centres undefined)
 : 0.6%, 7%, -0.4, 13, u, -0.8
COc1ccc(S(=O)(=O)Cc2ccc(C(=O)NCCCN3CCc4ccccc4C3)o2)cc1
 : -4.8%, -4%, 4.1, 42, -29%, 0.3
C[C@]12C=CC(=O)C=C1CC[C@@H]1[C@@H]2[C@@H](O)C[C@@]2(C)[C@H]1CC[C@]2(O)C(=O)COC(=O)CCC(=O)O
 : 2.3%, 1%, 3.6, 12, x, 0.2
Cc1nnc(SCC(=O)N(C)CC(=O)Nc2ccc(F)cc2)n1Cc1ccccc1
 : x, -10%, -1.2, 29, 10%, -0.7
O=C(CCn1c(=O)sc2ccccc21)NCCC1=CCCCC1
 : 0.4%, 4%, 10, 12, -3%, 0.2
O=Cc1ccc(Oc2nc(Cl)ncc2F)cc1
 : 0.9%, -9%, -3.2, 4, u, -0.6
COc1ccc(CNS(=O)(=O)c2c(C)[nH]c(C)c2C(=O)N2CCCC2)cc1
 : -1.0%, 10%, x, 17, 4%, -0.1
CC1(C)N=C(/C=N/O)CN1O
 : 0.7%, -2%, 3.0, 2, -62%[inhibitor], -0.1
CCOCCCNC(=O)C1CCCCN1S(=O)(=O)c1ccc(F)cc1 (centres undefined)
 : -0.6%, -2%, -2.4, 5, 1%, -0.1
CCc1cccc(C)c1NC(=O)Cn1ncc2c3ccccc3n(Cc3ccccc3)c2c1=O
 : -8.8%, x, x, 21, x, 2.1
Cc1c(Cl)ccc2sc(NC(=O)CN3C(=O)c4ccccc4C3=O)nc12
 : -1.0%, 5%, -3.2, 7, 9%, -0.1
Cc1ccc(-n2ncc(C(=O)NCC3CCN(C4CCCC4)C3)c2C2CCN(C(=O)OC(C)(C)C)CC2)cc1C (centres undefined)
 : 1.3%, -8%, -0.3, -4, -39%[inhibitor], -0.3
O=C(NCc1ccc(F)cc1)c1ccc2c(=O)n3c(nc2c1)CCCCC3
 : -5.1%, -5%, -11, 6, -28%, 0.9
O=[N+]([O-])c1cc(-c2nnc(-c3ccccc3)o2)ccc1Oc1ccc(Cl)cc1
 : 0.1%, -1%, 0.9, 16, -1%[15.4 µM], 0.4
Cn1ncc2c1ncn1nc(COc3ccc4ccccc4c3)nc21
 : 1.2%, 3%, 7.0, -3, -3%, -1.2
Cn1c(OCc2ccco2)nc2c1c(=O)n(Cc1ccc(Cl)c(Cl)c1)c(=O)n2C
 : -0.5%, -3%, 1.4, -3, -22%, -0.3
O=Cc1sc(=O)n(Cc2cccc(C(=O)O)c2)c1Cl
 : x, -11%, u, 1, 4%[15.4 µM], 0.2
Cn1c2c(c(=O)n(C)c1=O)C(NC(=O)C(C)(C)C)(C(F)(F)F)C(=O)N2 (centres undefined)
 : 1.3%, -13%, 3.3, -10, -1%, -0.9
CCc1ccc(NC(=O)/C(C#N)=C/c2ccncc2)cc1
 : 0.1%, 8%, x, 21, -34%[inhibitor], -0.6
Cc1cc2nc(-c3ccc[nH]c3=O)n(Cc3ccccc3F)c2cc1C
 : 0.3%, -7%, -5.2, 2, -9%[15.4 µM], -0.8
O=C1NC(NS(=O)(=O)c2ccccc2)(C(F)(F)F)C(=O)N1c1ccc(F)cc1 (centres undefined)
 : 1.0%&-1.6%, -1%, -3.0, -10&-1, u, 1.3&3.3
Cc1ccc(N=Nc2ccc(O)c3ncccc23)cc1
 : -0.3%, 7%, 7.8, -17, -39%[inhibitor], 2.1
COc1ccc(NC(=O)C(c2ccc(C)cc2)N(C)C(=O)CC2NC(=O)NC2=O)cc1 (centres undefined)
 : 0.6%, -8%, 2.2, 11, -6%[15.4 µM], -0.3
CC1CCN(S(=O)(=O)c2nnc(NC(=O)COc3ccccc3F)s2)CC1
 : -5.6%, 0%, 0.8, -10, -51%[inhibitor], -0.2
Cc1ccc(Cl)cc1NC(=O)/C(C#N)=C/c1c(C)n(Cc2ccccc2)c2ccccc12
 : -8.9%, x, x, 31, x, -0.3
Cc1ccc(NC(=O)C(OC(=O)c2cnc(C)cn2)c2ccccc2)c([N+](=O)[O-])c1 (centres undefined)
 : 3.1%, -23%, x, -8, -13%[15.4 µM], 1.0
Cc1c(NC(=O)CCC(=O)N2CCOCC2)c(=O)n(-c2ccccc2)n1C
 : 0.0%, 15%, 7.6, -6, u, -0.8
CCOC(=O)N1CC(C)N(/[N+]([O-])=N/Oc2ccc([N+](=O)[O-])cc2[N+](=O)[O-])CC1C (centres undefined)
 : x, x, -8.9, -2, x, 0.1
CCN(CC)S(=O)(=O)c1cccc(C(=O)Nc2cc(C)on2)c1
 : 0.4%, 50µM*, 1.6, -15, 16%, 1.2
COc1ccc(Cl)cc1S(=O)(=O)N1CCN(c2ccc(F)cc2)CC1
 : -6.1%, -18%, 2.7, 9, -5%, -0.6
O=C(/C=C/c1ccccn1)c1cc(Br)ccc1O
 : x, 3%, 1.3, -13, 5%[15.4 µM], -0.9
Cc1ccc(Cl)cc1NC(=O)C1CCN(c2nnc(C)c3c(C)n(-c4ccccc4)nc23)CC1
 : -14%, x, x, 21, x, 1.8
CC1CCCC(C)N1S(=O)(=O)c1ccc(NC(=O)CNC2CCCC2)cc1 (centres undefined)
 : x, 5%, x, 8, 12%[15.4 µM], 2.8
C=CCn1c(=O)n(C)c2c(=O)n(C)c(=O)n(C)c21
 : x, 11%, x, 6, 47%, -0.6
CCCCC(c1nnnn1CCOC)N1CCN(Cc2ccccc2)CC1 (centres undefined)
 : 1.1%, 9%, -0.6, 10, -29%, 3.5
Nc1c(-c2ccc3c(c2)OCCO3)oc2ccccc2c1=O
 : -9.6%, -27%, 5.4, 26, 21%[15.4 µM], -0.1
Cc1cc(NC(=O)CSc2nnc(C)c(=O)n2N)no1
 : x, 5%, -0.3, -9, u, -0.5
NS(=O)(=O)c1ccc(CCNC(=S)NC(=O)c2ccccc2Br)cc1
 : x, 5%, x, 33, 0%, 1.1

# Continued.
# Each structure is followed by: ClpP mod, gsp antag, Menin-MLL FL inh, TRPML1 blocker, gsp ag, TRPML1 ag
CCN(CC)c1ccc(NC(=O)c2ccccc2F)cc1S(=O)(=O)Nc1ccccc1OC
 : -7.8%, 1%, -1.9, 46, u, 1.1
CCCN1CCN(C(=O)C(NC(=O)c2ccco2)C(C)C)CC1 (centres undefined)
 : x, 9%, 3.5, -5, -2%[15.4 µM], -0.6
CCOCC(=O)NCc1ccc2c(c1)OCO2
 : 2.8%, 3%, -2.4, 28, 0%, -0.1
Cc1cc(C)c(S(=O)(=O)N2CCc3ccccc32)c(C)c1
 : -3.1%, -15%, u, x, -9%, x
Cc1cccc(-n2c(C)cc(/C=C3\C(=N)N4N=C(CC(C)C)SC4=NC3=O)c2C)c1
 : -1.1%, 1%, 4.8, 39, 0%, 0.9
O=C(CSc1ccccc1)NCc1ccccn1
 : 4.1%, 11%, 2.3, 17, 4%, 0.3
Cc1occc1C(=O)Nc1cccc([N+](=O)[O-])c1C
 : -0.8%, 3%, -0.9, x, 17%, x
O=C(NC1CCCCC1)N1CCCCCC1
 : -1.5%, 5%, 4.4, -7, 7%, 0.9
